# HPGD inh: HPGD (human) dehydrogenase inhibition; purified HPGD, NADH fluorescence kinetic, PGE2 substrate; Potency, µM, for inactives: at the top dose activity change, negative = inhibition, usual class: inhibitors; AID 894; hit rate 4.3% among 150,000; active = well fitted inhibition curve with a large enough effect (not every such curve was filed as active); inconclusive = small, poorly fitted or top-dose-only effect, or another doubt; inactive = no such curve, though single readings can be large or run the other way;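 note: top concentration of the series not given in the record; plate controls included wells without enzyme; inactives centre near -10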
# Target sequence (P15428 whole entry, looked up): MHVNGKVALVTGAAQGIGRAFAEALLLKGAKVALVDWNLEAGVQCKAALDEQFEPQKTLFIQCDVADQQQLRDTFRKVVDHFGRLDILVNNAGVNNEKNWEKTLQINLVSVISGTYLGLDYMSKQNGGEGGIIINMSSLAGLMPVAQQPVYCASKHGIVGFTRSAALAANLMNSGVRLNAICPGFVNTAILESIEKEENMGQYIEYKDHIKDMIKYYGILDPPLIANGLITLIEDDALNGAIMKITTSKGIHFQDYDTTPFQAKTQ
#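 20 nM HPGD preincubated 15 min at room temperature with compound in 50 mM Tris-HCl pH 8, 0.01% Tween 20. Started with 1 mM NAD+ and 30 uM prostaglandin E2; NADH fluorescence (360/450 nm) read 5 times over 30-s intervals, last minus first.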
# The depositor's hits bear a star; ? = inconclusive; & = joins results of further samples. % is set by controls: 0 for no effect and ±100 for the full control effect; potency is the fitted concentration of half-maximal effect.
SMILES,HPGD inh
CC(=O)/C(C[N+]1(C)CCCCC1)=N\O,-19%
O=C(Nc1ccccc1)N(C1=NCCCCS1)c1ccccc1,-14%
N#C/C(=C/c1ccc(Br)s1)C(=O)NCCc1c[nH]c2ccccc12,-7%
Cc1cc(C)cc(-n2c(SCC(=O)NCc3ccco3)nc3ccccc3c2=O)c1,-10%
COc1ccc(-c2nnc(Sc3nc4ccccc4o3)c3ccccc23)cc1,-10%
CN(C)S(=O)(=O)c1ccc2c(c1)C(CC(=O)O)NC2=O (stereo unspecified),-6%
C[C@H](CO)NC(=O)[C@@H]1C[C@H]1[C@@H](NP(=O)(c1ccccc1)c1ccccc1)c1ccccc1,-1%&-4%
CCc1cccc(NC(=O)CSc2nc3c(c(=O)[nH]2)CCCC3)c1,10µM*
O=C(c1cn(-c2ccccc2)nc1-c1ccccc1)N1CCOCC1,-5%
Cc1noc(C)c1S(=O)(=O)N1CCCC(C(=O)NCCC2=CCCCC2)C1 (stereo unspecified),-12%
CCn1c(SCC(=O)Nc2cc(F)ccc2C)nnc1-c1ccccc1O,4%
COc1cc(OC)cc(C(=O)N2CCC(N3CCN(c4ccccc4OC)CC3)CC2)c1,2%
CC(C)(C)NC(=O)COC(=O)/C=C/c1ccc(F)cc1,-8%
COc1cccc(NC(=O)CSc2nc3n[nH]c(C)c3c(=N)n2-c2cccc(OC)c2)c1,?
CCOc1cc(/C=N/NC(=O)Cn2nc([N+](=O)[O-])cc2C)ccc1OCc1ccc(F)cc1,-14%
Cc1ccc(-c2n[nH]c(=O)c3ccccc23)cc1S(=O)(=O)N(C)CCO,16µM*
O=C(Oc1ccccc1)N1CCC2(CC1)CCN(c1ccncc1)CC2,-3%
COc1ccc2c(c1)N(C(=O)CSc1n[nH]c(C)n1)C(C)(C)C=C2C,-7%
CCC(C)(NC(=O)c1cccc(N2C(=O)CSC2c2ccccc2)c1)C(=O)Nc1ccccc1C (stereo unspecified),1%
O=C(c1cccnc1)N1CCC(c2nc3ccccc3[nH]2)CC1,-9%
Cn1c(=O)n(C)c2cc(S(=O)(=O)Nc3ccccc3O)ccc21,1%
COc1ccccc1NC(=O)C(C)NS(=O)(=O)c1ccccc1 (stereo unspecified),-10%
CCc1cccc(NC(=O)Nc2cccs2)c1,-20%
COc1ccc(N2CSC3=C(C#N)C(c4ccc(OC)c(OC)c4)CC(=O)N3C2)c(OC)c1 (stereo unspecified),10µM*
C=CCNC(=O)C1CC(c2cccc(OC)c2)=NO1 (stereo unspecified),-11%

# Two of these compounds in another layout.
SMILES	HPGD inh
Cc1noc(C)c1S(=O)(=O)N1CCCC(C(=O)NCCC2=CCCCC2)C1 (stereo unspecified)	-12%
CCn1c(SCC(=O)Nc2cc(F)ccc2C)nnc1-c1ccccc1O	4%

# Two entries from above, with bars between the fields:
molecule | HPGD inh
CC(C)(C)NC(=O)COC(=O)/C=C/c1ccc(F)cc1 | -8%
COc1cccc(NC(=O)CSc2nc3n[nH]c(C)c3c(=N)n2-c2cccc(OC)c2)c1 | ?

# Retrieved by structure from above:
SMILES,HPGD inh
CCc1cccc(NC(=O)Nc2cccs2)c1,-20%
COc1ccc(-c2nnc(Sc3nc4ccccc4o3)c3ccccc23)cc1,-10%
COc1ccc2c(c1)N(C(=O)CSc1n[nH]c(C)n1)C(C)(C)C=C2C,-7%
COc1ccc(N2CSC3=C(C#N)C(c4ccc(OC)c(OC)c4)CC(=O)N3C2)c(OC)c1 (stereo unspecified),10µM*
N#C/C(=C/c1ccc(Br)s1)C(=O)NCCc1c[nH]c2ccccc12,-7%
Cn1c(=O)n(C)c2cc(S(=O)(=O)Nc3ccccc3O)ccc21,1%

# Following part.
SMILES,HPGD inh
CN(C)c1ccc(/C=N/n2c(COc3ccccc3)n[nH]c2=S)cc1,13µM*
CN(C)S(=O)(=O)Oc1cccc(C(=O)Nc2ccc(Cl)c(Cl)c2)c1,-14%
CCCN1C(=O)S/C(=C\c2ccc(N3CCOCC3)cc2C)C1=O,-11%
COc1cccc(CNC(=O)CCNS(=O)(=O)c2cccs2)c1,-11%
CCOC(=O)C1=C(C)N=C2SC(C)C(=O)N2C1c1ccc(OC(C)=O)c(OC)c1 (stereo unspecified),-2%
COc1ccc(CNc2ccc(-c3ccc(OC)cc3)nn2)cc1,-11%
O=c1/c(=C/c2cccc3ccccc23)sc2ncnn12,-12%
CCN1C(=O)/C(=C/c2nc3ccccc3c(=O)n2-c2ccccc2)c2ccccc21,-11%
CC(NC(=O)Cn1ccsc1=N)C12CC3CC(CC(C3)C1)C2 (stereo unspecified),-5%
O=C(c1cccs1)N(Cc1nc2sc3c(c2c(=O)[nH]1)CCCC3)C1CCCC1,?
CN(C(=O)C(Cl)Cl)c1ccc(OC(=O)c2ccco2)cc1,-12%&4%
CCC(CC)c1nnc(NC(=O)c2cccc(S(=O)(=O)N3CCc4ccccc43)c2)s1,-19%
Cc1ccc(C)c(Oc2ncnc(N)c2[N+](=O)[O-])c1,-6%

# Grouped by structure, those above containing a halogen (6)
SMILES,HPGD inh
N#C/C(=C/c1ccc(Br)s1)C(=O)NCCc1c[nH]c2ccccc12,-7%
CCn1c(SCC(=O)Nc2cc(F)ccc2C)nnc1-c1ccccc1O,4%
CC(C)(C)NC(=O)COC(=O)/C=C/c1ccc(F)cc1,-8%
CCOc1cc(/C=N/NC(=O)Cn2nc([N+](=O)[O-])cc2C)ccc1OCc1ccc(F)cc1,-14%
CN(C)S(=O)(=O)Oc1cccc(C(=O)Nc2ccc(Cl)c(Cl)c2)c1,-14%
CN(C(=O)C(Cl)Cl)c1ccc(OC(=O)c2ccco2)cc1,-12%&4%

# Bioassay records from PubChem.

# The list is partial; the hit share may differ from the screen's.
